NPR1 antag = antagonists of human natriuretic peptide receptor Npr1. Potency, µM (series often up to 46.3 µM), for the others: at the highest dose activity change, negative = inhibition, most hits filed as inhibitors. AID 1347048. hit rate 1.6% among 76,000. HEK293 hNpr1 GloSensor cGMP, ANP-stimulated luminescence. P16066; active = well fitted inhibition curve with a large enough effect; inconclusive = small, poorly fitted or top-dose-only effect; inactive = no such curve, though single readings can be large or run the other way;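 further: nearly all actives have a fitted effect of over 60% in size; nearly all hits also lower the signal before the agonist is added; a reference antagonist and vehicle were the controls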
Target sequence (P16066 whole entry, looked up): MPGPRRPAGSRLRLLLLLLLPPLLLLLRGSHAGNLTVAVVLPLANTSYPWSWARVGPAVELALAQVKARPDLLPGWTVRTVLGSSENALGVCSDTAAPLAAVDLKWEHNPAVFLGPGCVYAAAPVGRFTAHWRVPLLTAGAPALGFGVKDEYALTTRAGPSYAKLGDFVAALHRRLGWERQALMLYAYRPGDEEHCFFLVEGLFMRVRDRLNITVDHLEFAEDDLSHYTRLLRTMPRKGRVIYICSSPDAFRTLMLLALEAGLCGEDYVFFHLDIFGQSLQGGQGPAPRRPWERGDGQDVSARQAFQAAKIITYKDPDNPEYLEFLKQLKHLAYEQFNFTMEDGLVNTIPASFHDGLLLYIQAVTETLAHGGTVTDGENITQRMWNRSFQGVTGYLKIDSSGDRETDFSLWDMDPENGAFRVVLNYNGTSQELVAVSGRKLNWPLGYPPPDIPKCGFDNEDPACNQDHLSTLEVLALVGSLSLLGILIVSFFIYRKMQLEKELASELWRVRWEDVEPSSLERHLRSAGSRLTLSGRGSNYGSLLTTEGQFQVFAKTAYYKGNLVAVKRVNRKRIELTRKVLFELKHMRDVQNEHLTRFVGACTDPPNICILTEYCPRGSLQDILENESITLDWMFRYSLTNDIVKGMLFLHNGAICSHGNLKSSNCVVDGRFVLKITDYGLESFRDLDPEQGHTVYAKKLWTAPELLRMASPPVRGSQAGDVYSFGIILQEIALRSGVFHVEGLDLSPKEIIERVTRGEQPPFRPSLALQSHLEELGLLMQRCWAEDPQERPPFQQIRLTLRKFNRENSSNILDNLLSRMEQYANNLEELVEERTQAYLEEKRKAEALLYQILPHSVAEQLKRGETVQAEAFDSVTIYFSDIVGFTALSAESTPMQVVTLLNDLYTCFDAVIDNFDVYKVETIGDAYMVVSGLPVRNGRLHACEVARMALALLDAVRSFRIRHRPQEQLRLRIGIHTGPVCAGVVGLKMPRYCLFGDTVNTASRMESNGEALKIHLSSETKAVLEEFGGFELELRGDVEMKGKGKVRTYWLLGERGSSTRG
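HEK293 cells stably expressing human Npr1 and cGMP GloSensor pGS-40F, loaded 2 h with 2% GloSensor reagent, given compound 30 min at room temperature. Luminescence read before and 20 min after 0.1 nM hNppA.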
Active calls of the source: *; ? = inconclusive; [ ] = remark or other dose. On the % scale 0 is the no-effect control and ±100 the full control effect; potency means the concentration at half of the fitted maximal effect. The list is partial, so the mix of outcomes need not match the whole.

SMILES	NPR1 antag
CC(=O)N1CCC(NC[C@H]2C[C@@H]3CCN2C[C@@H]3c2cc(C3CCCC3)nc(C)n2)CC1	-1.9%[70.6 µM]
COc1ccc(NC(=O)N2[C@H]3CC[C@@H]2c2cnc(C)nc2C3)cc1OC	4.9%
Cc1nc(-c2cccs2)cc([C@H]2CN3CC[C@H]2C[C@@H]3COC(=O)NC2CCCCC2)n1	2.4%
CN1CCN(C(=O)Cc2c[nH]c3ncc(-c4ccccc4F)cc23)CC1	3.2%[70.6 µM]
O=C(O)c1cn(Cc2ccc(F)cc2)nn1	8.6%
CCOc1ccc(C(=O)N2CCC3(CC2)c2nccn2-c2ccccc2CN3C)cc1	0.5%
COc1cc2c(cc1OCc1ccccc1)N([S+](=O)([O-])c1ccc3c(c1)CCO3)CC21CCN(C)CC1	-9.1%
N#Cc1cccc(NC(=O)N2C[C@@H]3C[C@H](C2)c2c(-c4ccccc4)ccc(=O)n2C3)c1	3.2%[70.6 µM]
Cc1ccc(C)c(S(=O)(=O)N2[C@H]3CC[C@@H]2c2cnc(-c4ccccc4)nc2C3)c1	?
COc1cc2c(cc1Oc1ccccc1)NC(=O)C21CCN(C(=O)C(C)C)CC1	7.4%[70.6 µM]
COc1ccc(-c2cc([C@H]3CN4CC[C@H]3C[C@@H]4CNC(=O)N3CCOCC3)n(C)n2)cc1OC	5.6%
COc1cc2c(cc1Oc1ccccc1)NC(=O)C21CCN(C(=O)c2cccc(O)c2)CC1	-17.3%
CCCCc1cn(C[C@H]2C[C@@H]3CCN2C[C@@H]3C(=O)Nc2nccs2)nn1	3.6%[70.6 µM]
Cc1ccc(C(=O)NC[C@H]2C[C@@H]3CCN2C[C@@H]3c2cc(C3CCCCC3)nn2C)cc1	-10.9%[70.6 µM]
Cc1nc(-c2ccc(N(C)C)cc2)cc([C@H]2CN3CC[C@H]2C[C@@H]3COC(=O)Nc2ccccc2)n1	-25.3%
Cc1nc(-c2ccccc2)cc([C@H]2CN3CC[C@H]2C[C@@H]3CNS(C)(=O)=O)n1	-9.0%[70.6 µM]
COCCNC(=O)[C@H]1CN2CC[C@H]1C[C@@H]2Cn1cc(C2(O)CCCC2)nn1	8.2%[70.6 µM]
COc1cc2c(cc1OCc1ccccc1)NC(=O)C21CCN(Cc2nccs2)CC1	-13.4%[70.6 µM]
CC(=O)Nc1ccc(-c2ccc(=O)n3c2[C@@H]2C[C@@H](CN(C(=O)C4CCCCC4)C2)C3)cc1	-0.2%[70.6 µM]
CCO[C@H]1CN(C(=O)C2(c3ccccc3)CCNCC2)C[C@@H]1O	-0.2%

Quoted from above for reference:
SMILES	NPR1 antag
CC(=O)N1CCC(NC[C@H]2C[C@@H]3CCN2C[C@@H]3c2cc(C3CCCC3)nc(C)n2)CC1	-1.9%[70.6 µM]
COc1ccc(NC(=O)N2[C@H]3CC[C@@H]2c2cnc(C)nc2C3)cc1OC	4.9%

(more compounds)
SMILES	NPR1 antag
Cc1nc(-c2ccc(F)cc2)cc([C@H]2CN3CC[C@H]2C[C@@H]3CNS(=O)(=O)Cc2ccccc2)n1	3.5%
CCCS(=O)(=O)Nc1ccc(=O)n2c1[C@@H]1C[C@@H](CN(S(=O)(=O)c3ccccc3)C1)C2	-1.7%
O=C(NCc1ccc2c(c1)OCO2)[C@H]1CN2CCC1C[C@@H]2Cn1cc(CC2CCCCC2)nn1 (stereo partly specified)	-1.1%
Cc1ccc(C)c(CC(=O)N2CCN(Cc3ccccc3)CC(O)C2)c1 (stereo unspecified)	4.7%
COCCn1c(C)cc(C(=O)NC2CCc3nnc(C)n3CC2)c1C (stereo unspecified)	0.0%
O=C1NC2(CCN(Cc3ccccn3)C2)OCc2ccccc21 (stereo unspecified)	0.0%[70.6 µM]
COCC(=O)NC[C@H]1C[C@@H]2CCN1C[C@@H]2CN1CCCC1	3.2%[70.6 µM]
CC(C)NC(=O)NC[C@H]1C[C@@H]2CCN1C[C@@H]2c1cc(-c2cccs2)nn1C	1.3%[70.6 µM]
COc1ccc(-c2cc([C@H]3CN4CC[C@H]3C[C@@H]4CNC(=O)NC(C)C)nc(C)n2)cc1OC	0.3%
COc1ccc(C2(C(=O)N3CCC4(CC3)c3nccn3-c3ccccc3CN4C)CC2)cc1	8.91µM*
CCC1(N2CCN(C(=O)COc3cccc(Cl)c3)CC2)CCN(C(=O)NC)C1 (stereo unspecified)	-17.6%
NC(=O)CN1C(=O)CO[C@H]2CN(Cc3ccccn3)C[C@H]21	6.8%[70.6 µM]
Cc1nc(-c2ccc(N(C)C)cc2)cc([C@H]2CN3CC[C@H]2C[C@@H]3CNC(=O)C2CCC2)n1	-5.7%[70.6 µM]
Cn1nc(-c2ccccc2)cc1[C@H]1CN2CC[C@H]1C[C@@H]2CNC(=O)c1ccco1	-1.3%[70.6 µM]
O=C(NC[C@H]1C[C@@H]2CCN1C[C@@H]2CN1CCN(c2ccc(F)cc2)CC1)Nc1ccsc1	0.6%
CC[C@H]1CN2CC[C@H]1C[C@@H]2CNC(=O)c1ccc2c(c1)OCO2	1.7%[70.6 µM]
O=S(=O)(c1cccnc1)N1[C@H]2CC[C@@H]1c1cnc(-c3ccc(F)cc3)nc1C2	?
Cc1ncc2c(n1)C[C@@H]1CC[C@H]2N1S(=O)(=O)c1ccc(F)c(C)c1	0.9%
CN(CCc1ccccn1)C[C@H]1CN2CC[C@H]1C[C@@H]2CNC(=O)Nc1ccsc1	-0.2%[70.6 µM]
Cc1ncc2c(n1)C[C@@H]1CC[C@H]2N1C(=O)C1CCCC1	9.3%
CN1C(=O)CO[C@H]2CN(Cc3ncc[nH]3)C[C@H]21	4.8%[70.6 µM]
CCC1(N2CCN(C(=O)Cc3ccccc3OC)CC2)CCN(C(=O)NC)C1 (stereo unspecified)	-1.7%
COc1cc2c(cc1OCc1ccccc1)N([S+](=O)([O-])c1cn(C)cn1)CC21CCN(C)CC1	-2.0%
Cc1ccc(C(=O)NC[C@H]2C[C@@H]3CCN2C[C@@H]3c2cc(-c3cccs3)nn2C)cc1	1.6%[70.6 µM]
CC[C@H]1CN2CC[C@H]1C[C@@H]2CN(Cc1cccs1)Cc1cccs1	?
Cn1nc(-c2ccc3ccccc3c2)cc1[C@H]1CN2CC[C@H]1C[C@@H]2COC(=O)Nc1cccc(C(F)(F)F)c1	3.9%
CCCNC(=O)N1CC2CN(C(C)C)CC(C1)O2	-1.6%
C#C[C@H]1CN2CC[C@H]1C[C@@H]2CNC(=O)Nc1ccc(C(C)=O)cc1	4.0%[70.6 µM]
Cc1nc(-c2ccccc2Br)cc([C@H]2CN3CC[C@H]2C[C@@H]3CNC(=O)NC2CCCCC2)n1	0.6%
CCNC(=O)N1CCC2(CC1)c1nccn1-c1ccccc1CN2CC(C)C	-2.1%
COc1ccc2c(c1)C1(CCN(S(=O)(=O)c3ccc(C)cc3)C1)C(=O)N2C (stereo unspecified)	-12.0%
Cc1nc(-c2ccc(C(F)(F)F)cc2)cc([C@H]2CN3CC[C@H]2C[C@@H]3CNC(=O)C2CCC2)n1	1.0%
O=C(NCC[C@@H]1C[C@@H]2C=C[C@H]1C2)c1cn(Cc2ccccc2Cl)nn1	-0.5%
Cc1ccc2c(n1)N(C)[C@H](CO)CCN(Cc1ccco1)C2	0.4%[70.6 µM]
COc1ccccc1-c1cc([C@H]2CN3CC[C@H]2C[C@@H]3CNC(=O)c2ccco2)n(C)n1	-11.7%[70.6 µM]
CCOCC(=O)N1CCC2(CC1)c1nccn1-c1ccccc1CN2CC(C)C	-4.0%
O=S(=O)(c1cc(F)ccc1F)N1[C@H]2CC[C@@H]1c1cncnc1C2	1.1%
CCCS(=O)(=O)NC[C@H]1C[C@@H]2CCN1C[C@@H]2c1cc(-c2ccccc2)nn1C	1.1%[70.6 µM]
COCCn1c(C)cc(C(=O)N2[C@H]3CC[C@@H]2c2cnc(-c4ccc(F)cc4)nc2C3)c1C	11.2µM*
CCC(CC)c1cc([C@H]2CN3CC[C@H]2C[C@@H]3CNC(=O)C2CC2)nc(-c2ccncc2)n1	-3.1%[70.6 µM]
CN(Cc1ccccc1)C[C@H]1CN2CC[C@H]1C[C@@H]2CNC(=O)Nc1ccsc1	-1.0%[70.6 µM]
CN1C(=O)N(C)C2(CCN(Cc3cn4cc(Cl)ccc4n3)C2)C1=O (stereo unspecified)	11.7%
Cc1nc(C2CCCC2)cc([C@H]2CN3CC[C@H]2C[C@@H]3CNC(=O)CCCC(=O)O)n1	0.3%[70.6 µM]
CC(C)CN1C[C@@H]2OCC(=O)N(Cc3cccnc3)[C@@H]2C1	2.5%[70.6 µM]
COc1ccc(C(=O)N2[C@H]3CC[C@@H]2c2cnc(C)nc2C3)cc1OC	3.5%
COc1ccc(C2(C(=O)N3[C@H]4CC[C@@H]3c3cnc(C)nc3C4)CCCCC2)cc1	2.5%
CCC(CC)c1cc([C@H]2CN3CC[C@H]2C[C@@H]3CNS(C)(=O)=O)nc(-c2ccncc2)n1	1.6%
O=C(Nc1ccc2n(c1=O)C[C@H]1C[C@@H]2CN(C(=O)COc2ccccc2)C1)c1cccs1	-5.7%
CN1CCCCCCN(Cc2ccccn2)[C@H]2CCC[C@H]2C1=O	-17.2%
CCCNC(=O)OC[C@H]1C[C@@H]2CCN1C[C@@H]2c1cc(-c2cccs2)nc(C)n1	0.2%[70.6 µM]
CCCS(=O)(=O)NC[C@H]1C[C@@H]2CCN1C[C@@H]2c1cc(-c2ccccc2Br)nc(C)n1	2.6%
C#C[C@H]1CN2CC[C@H]1C[C@@H]2CNC(=O)COc1ccccc1	3.2%[70.6 µM]
CN1Cc2ccccc2-n2ccnc2C12CCN(C(=O)Cc1cccc(F)c1)CC2	1.7%
Cc1ccc(S(=O)(=O)NC[C@H]2C[C@@H]3CCN2C[C@@H]3c2cc(-c3ccccc3Br)nc(C)n2)cc1	1.0%
COc1ccc(C(=O)N2[C@H]3CC[C@@H]2c2cnc(-c4ccc(F)cc4)nc2C3)cc1F	?
Cn1nc(-c2ccccc2)cc1[C@H]1CN2CC[C@H]1C[C@@H]2CNC(=O)Nc1ccccc1	-0.3%[70.6 µM]
COc1ccc(-c2cc([C@H]3CN4CC[C@H]3C[C@@H]4CNS(=O)(=O)c3ccc(C)cc3)n(C)n2)cc1OC	0.5%
CSCC(=O)N1C[C@@H]2C[C@H](C1)c1ccc(-c3cccc(C(F)(F)F)c3)c(=O)n1C2	0.2%[70.6 µM]
CC(=O)c1ccc(NC(=O)NC[C@H]2C[C@@H]3CCN2C[C@@H]3CN2CCCCC2)cc1	7.7%[70.6 µM]
COc1ccc(S(=O)(=O)NC[C@H]2C[C@@H]3CCN2C[C@@H]3CN2CCCCC2)cc1	2.7%[70.6 µM]

Entries from the list above that contain a Cl atom, in the order listed:
SMILES	NPR1 antag
CCC1(N2CCN(C(=O)COc3cccc(Cl)c3)CC2)CCN(C(=O)NC)C1 (stereo unspecified)	-17.6%
O=C(NCC[C@@H]1C[C@@H]2C=C[C@H]1C2)c1cn(Cc2ccccc2Cl)nn1	-0.5%
CN1C(=O)N(C)C2(CCN(Cc3cn4cc(Cl)ccc4n3)C2)C1=O (stereo unspecified)	11.7%

Remaining list, next part.
SMILES	NPR1 antag
COc1cc2c(cc1OCc1ccccc1)N(C(=O)CCc1ccccn1)CC21CCN(C)CC1	2.1%
CC(C)CCN1CCC(N2CCN(C(=O)COc3ccccc3)CC2)C1=O (stereo unspecified)	2.5%
COc1cc2c(cc1Oc1ccccc1)NC(=O)C21CCN(C(=O)C2CCC2)CC1	-11.8%[70.6 µM]
COCCN1C[C@H]2CN(Cc3ccccn3)CCN2C1=O	-1.5%[70.6 µM]
Cc1nc(-c2cccs2)cc([C@H]2CN3CC[C@H]2C[C@@H]3CNC(=O)N2CCOCC2)n1	-1.7%[70.6 µM]
CCCS(=O)(=O)Nc1ccc(=O)n2c1[C@@H]1C[C@@H](CN(C(=O)Nc3ccc(OC)cc3)C1)C2	7.3%
COc1ccc(C(=O)N2C[C@@H]3C[C@H](C2)c2c(NC(=O)c4ccco4)ccc(=O)n2C3)cc1	2.1%[70.6 µM]
COc1cc2c(cc1OCc1ccncc1)NC(=O)C21CCN(Cc2nccs2)CC1	?
O=S(=O)(c1ccc(F)cc1)N1[C@H]2CC[C@@H]1c1cncnc1C2	-2.7%
Cn1nc(-c2ccc3ccccc3c2)cc1[C@H]1CN2CC[C@H]1C[C@@H]2CNC(=O)c1ccco1	-0.4%
COc1cc2c(cc1OCc1ccccc1)N(C(=O)c1ccnn1C)CC21CCN(C)CC1	0.4%
Cc1cccc(-c2ncc(CN3CCC4(CCCNC4)C3)cn2)c1 (stereo unspecified)	6.7%
COc1ccc(NC(=O)NC[C@H]2C[C@@H]3CCN2C[C@@H]3CN2CCN(c3ccccc3OC)CC2)cc1	-17.8%
COCC1CN(C2CCC2)CC12CCN(Cc1ccncc1)CC2 (stereo unspecified)	3.1%
COc1cc2c(cc1OCC1CC1)NC(=O)C21CCN(c2cc(NC3CC3)ncn2)CC1	-8.7%[70.6 µM]
COc1ccc(-c2cc([C@H]3CN4CC[C@H]3C[C@@H]4CNC(=O)C(C)(C)C)nc(C)n2)cc1OC	-3.3%
CC(=O)NC[C@H]1C[C@@H]2CCN1C[C@@H]2c1cc(-c2cccs2)nc(C)n1	-13.7%[70.6 µM]
COc1cc2c(cc1OCc1ccccc1)NC(=O)C21CCN(C(=O)C2CCC2)CC1	-20.3%[70.6 µM]
CN1CC2CN(C(=O)c3ccsc3)CC(C1)O2	1.1%
CC[C@H]1CN2CC[C@H]1C[C@@H]2CNS(=O)(=O)c1cccc(C#N)c1	0.3%[70.6 µM]

4 records drawn at random from those above:
SMILES	NPR1 antag
CC[C@H]1CN2CC[C@H]1C[C@@H]2CNS(=O)(=O)c1cccc(C#N)c1	0.3%[70.6 µM]
CN1CC2CN(C(=O)c3ccsc3)CC(C1)O2	1.1%
COc1cc2c(cc1OCc1ccncc1)NC(=O)C21CCN(Cc2nccs2)CC1	?
Cc1cccc(-c2ncc(CN3CCC4(CCCNC4)C3)cn2)c1 (stereo unspecified)	6.7%

From PubChem
